Compound activity: PubChem, several laboratories
PKD1 kinase inh: blocks activity of human protein kinase D1; Q15139; PKD1 kinase fluorescence polarization assay; inhibition, %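 (about 10 µM by stock and volumes)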; 0.056% of 200,000 active; AID 797;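 active means inhibition of 50% or more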;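 further: controls were vehicle for no effect and a reference inhibitor for full effect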
GALR2 ag: GALR2 (human) receptor agonism; 0.48% of 140,000 active; activation, %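 (tested at 5 µM)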; AID 803; GALR2-expressing cells, agonist activation read-out; O43603;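 active means above mean plus 3 SD of all compounds, about 5% in these data, not always enough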;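 further: 0% = vehicle buffer wells and 100% = reference agonist at full effect; tested in CHO reporter cells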
Target sequence (O43603 whole entry, looked up): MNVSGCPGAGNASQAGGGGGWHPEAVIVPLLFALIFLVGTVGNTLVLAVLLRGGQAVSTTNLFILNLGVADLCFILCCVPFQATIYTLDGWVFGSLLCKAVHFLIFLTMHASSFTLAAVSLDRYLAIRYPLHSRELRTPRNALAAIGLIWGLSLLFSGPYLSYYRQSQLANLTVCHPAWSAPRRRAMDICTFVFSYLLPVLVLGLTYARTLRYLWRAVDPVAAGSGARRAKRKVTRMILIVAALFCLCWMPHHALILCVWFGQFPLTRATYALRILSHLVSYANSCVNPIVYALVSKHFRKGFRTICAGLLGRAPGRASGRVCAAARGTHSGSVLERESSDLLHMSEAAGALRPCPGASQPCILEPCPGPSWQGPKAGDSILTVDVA
RGS16-Gao HTS: RGS16-Galphao interaction regulator (human) | AID 1441 | 0.38% of 220,000 active | binding response (% of control), % at 10 µM | O15492+P09471 | bead-based flow cytometry RGS16-Galphao binding, fluorescence; actives lie on both sides;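 active means below 25% or above 175%, edge rows of some plates excepted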;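 further: Galphao activated by GDP with aluminum fluoride before binding; 100% = wells without compound and 0% = beads without RGS; some results beyond the cut were filed as inactive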
Target sequence (O15492 whole entry, looked up): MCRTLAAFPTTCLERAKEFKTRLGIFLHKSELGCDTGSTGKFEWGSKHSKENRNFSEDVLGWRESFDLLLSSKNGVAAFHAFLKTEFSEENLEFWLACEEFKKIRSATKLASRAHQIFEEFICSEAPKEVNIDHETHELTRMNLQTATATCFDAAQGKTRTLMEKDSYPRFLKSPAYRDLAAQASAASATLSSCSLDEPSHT
Target sequence (P09471 whole entry, looked up): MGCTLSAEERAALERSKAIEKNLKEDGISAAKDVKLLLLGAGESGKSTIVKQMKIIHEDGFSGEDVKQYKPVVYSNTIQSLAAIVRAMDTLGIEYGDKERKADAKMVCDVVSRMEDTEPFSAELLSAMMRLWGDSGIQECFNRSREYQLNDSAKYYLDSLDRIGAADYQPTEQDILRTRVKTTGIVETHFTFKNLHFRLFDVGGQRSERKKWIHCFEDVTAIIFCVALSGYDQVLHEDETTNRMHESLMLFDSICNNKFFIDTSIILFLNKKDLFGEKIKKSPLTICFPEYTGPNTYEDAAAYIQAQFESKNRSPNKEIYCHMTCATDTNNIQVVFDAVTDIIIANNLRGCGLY
HSV augment: HSV replication enhancement; HSV replication augmentation in cells, fold increase; AID 1956; 0.005% of 220,000 active; maximum fold increase;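 active means peak rise of 1.5-fold or more in the series; tested in PC3 cells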;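 further: first round at 10 µM; read as green reporter fluorescence; hits show the peak of a series up to 25 µM; 1 = signal of infected wells without compound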
Insulin prom inh: TRM-6 insulin promoter activity inhibition; TRM-6 cells (human fetal islet line), insulin promoter-eGFP reporter, imaging; reporter expression induced with tamoxifen; inhibition, % at 2 µM; 0.9% of 130,000 active;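 active means inhibition above the mean plus 3 SD, with well images judged a real hit on visual review, cut at about 60% in these data, passing the limit was not always enough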
Insulin prom inh cell count: further read-out of Insulin prom inh, marked with its call; normalized cell count, %; measured here: cell count, toxicity; reference of the scale not given here;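 cells exposed to compound for 48 h; stained nuclei by imaging scaled within each plate; lower means fewer cells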
HSV augment primary fold: second read-out of HSV augment, no call of its own (marks repeat the call); fold increase; compound at 10 µM; measured here: primary screen fold increase 10 uM; tested in PC3 cells;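 GFP signal in the first replicate; 1 = infected wells without compound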
Active calls of the source: *; i = inactive; · = no result given.

Compound	PKD1 kinase inh	GALR2 ag	RGS16-Gao HTS	HSV augment	HSV augment primary fold	Insulin prom inh	Insulin prom inh cell count
O=C(Nc1cccnc1)c1ccc(-c2cc(Cl)ccc2Cl)o1	-4	·	92	i	0.96	·	·
O=C(O)CC12CSc3[nH]c(=O)sc3C1c1ccccc1OC2=O (centres undefined)	-7	-1.8	45	i	0.98	·	·
Cc1ccc2[nH]c3c(c2c1)CN(C(=O)CN1CCN(c2ccccc2)CC1)CC3	-6	-0.4	97	i	1	-30	92
C(=C\c1ccccc1)/CN1CCN(Cc2nc(Cc3ccccc3)no2)CC1	-2	·	102	i	0.93	·	·
COC(=O)c1c(C)cc(C)c2c1CC(C)(C)C2=O	·	·	105	i	0.95	·	·
Cn1c(CSCc2ccc(Cl)c(Cl)c2)n[nH]c1=S	-1	-2.5	42	i	1.1	12	39
COC(=O)Nc1ccc(S(=O)(=O)N2CCCc3cccc(O)c32)cc1	0	·	107	i	1	·	·
CCOC(=O)Cn1c(=NC(=O)CSC(C)=O)sc2ccccc21	-3	-2.1	72	i	0.9	20	156
COc1nc(C)nc(C)c1Oc1ccc(Cl)cc1Cl	·	·	94	i	1	·	·
Cc1csc(NC(=O)CSc2ccc3nnc(-c4ccncc4)n3n2)n1	-2	·	105	i	1.1	0	126
CCOC(=O)CC(NS(=O)(=O)Cc1ccccc1)c1ccc(C)cc1 (centres undefined)	3	-0.5	111	i	0.93	-33	117
Cc1ccccc1Cn1c(C(=O)OC(C)C)cc2c1ccn2C	0	0.2	98	i	0.97	-60	88
O=C(O)CCn1c(C(=O)O)cc2sccc21	1	-1.8	38	i	1	3	35
Cc1cc(C)n(-c2ccc(S(N)(=O)=O)cc2[N+](=O)[O-])n1	-2	·	111	i	0.94	·	·
Cc1ccc(NC(=O)C2C3CC4OC(=O)C2C4C3)cc1Cl (centres undefined)	3	38*	103	i	0.92	-59	144
ON/C=N/C(=S)Nc1ncc(C(F)(F)F)cc1Cl	-1	·	99	i	0.86	·	·
CC1(C)CC(=O)C=C(NCC2CCCO2)C1 (centres undefined)	6	-0.3	98	i	1.2	·	·
COc1cccc(/C=N/n2cnc3ccccc32)c1OC	-2	-1.5	102	i	0.75	8	100
Cc1ccc(Cn2nnc3c(=O)[nH]c(C4CCN(S(=O)(=O)c5ccccc5)CC4)nc32)cc1	-11	-1.5	136	i	0.99	·	·
CCn1c(-c2ccccc2)c[nH]c1=S	-7	-1.5	92	i	0.93	-5	200
Cc1ccc2c(c1)[nH]c1c(=O)n(Cc3ccco3)cnc12	·	·	91	i	1	·	·
O=C1C2C3C=CC(C3)C2C(=O)N1CNc1ccccn1 (centres undefined)	-5	-0.8	100	i	0.95	7	170
O=C(Nc1ccc(F)cc1)c1cc(S(=O)(=O)Nc2ccc(F)cc2)cs1	-3	-2.7	99	i	0.96	54	106
CC(CCc1ccccc1)NC(=O)c1ccc(Cl)nc1 (centres undefined)	-1	-2.1	100	i	0.95	-16	214
COc1ccc2c(c1)O[C@H](c1ccc3c(c1)OCO3)[C@@H](OC(=O)N[C@H](C)C1CCCCC1)C2=O	-9	-1.0	93	·	·	-60	113
CC1CCC2C(=O)N(c3ccc(NC4CCCCC4)c([N+](=O)[O-])c3)C(=O)C2C1 (centres undefined)	-5	-0.9	101	i	0.88	31	95
COc1ccc(N2C(=O)C3CCCN3C2c2cccs2)cc1 (centres undefined)	-13	-0.7	104	i	0.91	·	·
CCOC(=O)CN(C(=O)CSc1nnc(COc2ccc(OC)cc2)n1C)c1ccccc1	2	-1.8	102	i	1	·	·
Cc1nnc2c3ccccc3c(Cl)nn12	-4	·	109	i	0.94	·	·
CC1CN=C(c2cccn2Cc2ccc(F)cc2Cl)O1 (centres undefined)	-8	-2.4	102	·	·	0	150
CCN1CCCC1Cn1cnc2c([nH]c3cc(OC)ccc32)c1=O (centres undefined)	-5	-1.6	100	i	0.91	-16	196
Cc1cccnc1NC(=O)c1ccc2nc(N)sc2c1	-5	-2.4	104	i	1	-11	190
Cc1cc(NC(=O)Nc2cc(Cl)ccc2C)no1	·	·	105	i	0.72	·	·
COC(=O)c1c(NC(=O)c2cccnc2)sc(C)c1C	5	-0.7	102	i	0.99	-21	108
Cc1nc2c(C(=O)N3CCOCC3)cnn2c(C)c1Cc1ccc(Cl)cc1	2	1.6	91	i	0.92	-67	127
Cc1csc2nc(=O)c3ccccc3n12	-9	-2.2	94	i	0.8	45	116
C=CCn1c(N2CCCC2)nc2c1c(=O)[nH]c(=O)n2C	9	-2.1	101	i	1	·	·
Cc1cc(C)n(-c2cccc(CN(C)Cc3nc(-c4cnccn4)no3)c2)n1	-1	·	122	i	1.1	·	·
O=C(C1CCN(S(=O)(=O)c2ccc(-n3cnnn3)cc2)CC1)N1CCN(c2ccccc2)CC1	-4	-2.2	98	i	0.99	-4	84
COc1ccc(C(CC(=O)Nc2cc(OC)cc(OC)c2)n2cccc2)cc1 (centres undefined)	-6	0.8	101	i	1	28	142
COc1ccc(C(=O)NNC(=S)NC(=O)c2cc(-c3ccccc3)nc3ccccc23)cc1	2	-4.2	104	·	·	11	144
Cc1cccc(N/C(N)=N/c2nc(C(F)(F)F)cc(=O)[nH]2)c1C	-2	2.4	114	i	0.89	42	115
O=C(Nc1nnc(-c2cccs2)s1)C1CC1	-2	·	100	i	0.98	·	·
CC(C)CCN(C)C1CCN(S(=O)(=O)c2cccc(C(F)(F)F)c2)CC1	-5	0.4	173	·	·	-12	117
O=C(c1ccccc1)N1CCN=C1c1ccccc1	-16	0.1	106	i	0.85	-14	93
CCOc1cc(NC(=S)Nc2ccccc2)c(OCC)cc1NC(=O)c1ccc(OC)cc1	-8	-3.6	46	i	0.96	13	141
Cc1cc(Cl)ccc1OCCCC(=O)NN	-4	·	99	i	0.72	42	91
CC(=O)c1cccc(Nc2c([N+](=O)[O-])c(=O)oc3ccccc23)c1	·	·	97	i	0.94	·	·

Among those listed so far, these contain a CF3 group:
Compound	PKD1 kinase inh	GALR2 ag	RGS16-Gao HTS	HSV augment	HSV augment primary fold	Insulin prom inh	Insulin prom inh cell count
ON/C=N/C(=S)Nc1ncc(C(F)(F)F)cc1Cl	-1	·	99	i	0.86	·	·
Cc1cccc(N/C(N)=N/c2nc(C(F)(F)F)cc(=O)[nH]2)c1C	-2	2.4	114	i	0.89	42	115
CC(C)CCN(C)C1CCN(S(=O)(=O)c2cccc(C(F)(F)F)c2)CC1	-5	0.4	173	·	·	-12	117

The results go on:
Compound	PKD1 kinase inh	GALR2 ag	RGS16-Gao HTS	HSV augment	HSV augment primary fold	Insulin prom inh	Insulin prom inh cell count
Cn1nc(C(F)(F)F)c2cc(NC(=O)OCc3ccc(C(C)(C)C)cc3)sc21	-1	-1.6	101	·	·	-38	75
CCOC(=O)C(C)Oc1ccsc1C(=O)OC (centres undefined)	6	-1.4	99	i	0.9	4	79
Cc1cccn2c(=O)c3cc(C#N)c(=NC(=O)c4cccs4)n(CCCOC(C)C)c3nc12	·	·	98	i	1.2	·	·
O=C(CNS(=O)(=O)c1ccc(C(=O)N2CCCCC2)cc1)N1CCCCC1	-21	-0.7	108	i	0.97	-4	125
CCCCCN1C2=NCCN2c2ccccc21	-1	-0.9	103	i	0.98	69	128
CCOC(=O)CSc1nnc(CNC(=O)c2ccc(OC)cc2)n1-c1ccc(OC)cc1	-8	-2.1	106	i	0.83	-43	79
CCN(CC)S(=O)(=O)c1ccc2nnn(OCC(=O)Nc3cccc(C#N)c3)c2c1	-10	-1.0	114	i	0.85	27	110
C=CCn1c(-c2ccc(OC)cc2)nc2nc3ccccc3nc21	-7	-2.2	99	i	1.1	-28	60
CSc1ccccc1C(=O)C1CCCN(S(=O)(=O)c2c(C)noc2C)C1 (centres undefined)	1	·	107	i	0.96	-17	206
COc1ccccc1Cc1nc(-c2cccnc2)no1	·	·	100	i	1.1	·	·
CC(=O)Nc1sc(N/N=C\c2ccccc2)nc1-c1cccs1	4	-0.4	99	i	1.1	·	·
CC(=O)Nc1ccc(S(=O)(=O)Nc2ccc(S(=O)(=O)N3CCCCCC3)cc2)cc1	8	-2.5	100	i	0.94	-23	95

Reprinted from the part before: 2 compounds, followed by the next part.
Compound	PKD1 kinase inh	GALR2 ag	RGS16-Gao HTS	HSV augment	HSV augment primary fold	Insulin prom inh	Insulin prom inh cell count
CC(=O)Nc1sc(N/N=C\c2ccccc2)nc1-c1cccs1	4	-0.4	99	i	1.1	·	·
CC(=O)Nc1ccc(S(=O)(=O)Nc2ccc(S(=O)(=O)N3CCCCCC3)cc2)cc1	8	-2.5	100	i	0.94	-23	95
CCCn1c(O)c(/C=C2\C=NN=C2c2ccccc2)sc1=S	-6	-0.2	91	i	0.84	47	30
COc1ccc([N+](=O)[O-])cc1/C=N/NC(=O)CNC(=O)c1cccc(F)c1	-8	-0.5	93	i	0.89	-13	106
CCOC(=O)c1ccc(NC(=O)CCC(CC)C(=O)O)cc1 (centres undefined)	-2	0.2	98	i	0.91	·	·
COc1ccccc1-c1c(C)nn2c(N3CCCCCC3)cc(C)nc12	-6	-1.8	105	i	0.92	·	·
O=c1oc(-c2ccccc2F)nc2c1cnn2-c1ccccc1	9	2.1	100	i	0.69	-74	34
Cc1onc(-c2c(F)cccc2Cl)c1C(=O)N1CCc2ccccc21	2	-1.5	100	i	0.86	-31	64
COc1cc(/C=C2/S/C(=N/S(=O)(=O)c3ccccc3)NC2=O)c([N+](=O)[O-])cc1OC	-4	-2.9	92	i	1.1	-38	100
CC(C)(C)NCC(O)Cn1cc(C=O)c2ccccc21 (centres undefined)	2	·	106	i	0.94	·	·
NC(=O)c1ccc2c(=O)n3c(-c4cc(Cl)c(N)c(Cl)c4)csc3nc2c1	·	·	105	i	0.7	·	·
Cc1ccc(OCCNC(=O)c2cc(-n3cnnc3)ccc2Cl)cc1C	-3	0.6	103	i	1.3	·	·
COc1ccc(C(O)c2coc3ccc(O)c(CN(C)C)c23)cc1 (centres undefined)	1	-1.9	92	i	0.88	-21	166
CCOc1ncccc1C(=O)OCC(=O)c1cccs1	-1	-0.7	93	i	1.2	-30	79
CCC(=O)Nc1ccc(C(=O)OCc2ccc(Cl)c(Cl)c2)cc1	0	-1.5	108	i	1	-7	114
CCc1ccc(NC(=O)Cn2c(=O)oc3cc(S(=O)(=O)N4CCOCC4)ccc32)cc1	-2	-2.5	113	i	0.98	·	·
CCc1nc2ccccc2n(CC)c1=O	-10	-2.4	102	i	1.1	·	·
N#CC1=C(N)c2ccccc2CC12CCCCC2	-2	-1.9	104	i	1.1	-3	131
COc1ccc(-c2nc(CS(=O)CC(=O)NCc3ccc4c(c3)OCO4)c(C)o2)cc1 (centres undefined)	-4	-1.2	97	i	0.93	·	·
COc1ccccc1C(=O)C1CCCN(C(=O)c2cc(CC(C)C)nc(C)n2)C1 (centres undefined)	1	·	106	i	1	·	·
NC(=O)c1sc2nc3c(cc2c1N)CCC3	5	·	111	i	0.94	42	89
Cc1cc(C)c(-c2csc(Cc3nc(-c4cc5ccccc5oc4=O)cs3)n2)cc1C	-5	-2.0	89	i	1.1	-7	114
Cc1ccc(S(=O)(=O)CC(=O)Nc2nc(-c3ccccc3)cs2)cc1	-2	-1.8	61	i	1	17	77
COc1ccc(NC(=O)c2ccc(COc3ccccc3Br)o2)cc1OC	1	-2.5	100	i	0.87	·	·
C=CCn1c(SCc2nc3ccccc3c(=O)[nH]2)nnc1-c1cc2cc(Cl)ccc2o1	0	-0.7	72	i	0.99	-119	100
COc1ccccc1CNCC(=O)N1CC(=O)Nc2ccccc21	-6	·	93	i	1.1	·	·
Cc1ccc(CC(=O)NCCC(=O)O)cc1	·	·	88	i	0.92	·	·
O=C(CNC(=O)c1ccccc1)NCC1COc2ccccc2O1 (centres undefined)	-7	-1.7	99	i	0.91	-21	131
COc1ccc(CN(Cc2cccn2C)S(=O)(=O)c2ccc(C)cc2)cc1	·	·	97	i	1.1	·	·
COc1ccc(C(CNC(=O)c2ccc(N3CCCC3=O)cc2)N(C)C)cc1 (centres undefined)	-2	-2.0	100	i	0.89	-9	81
CCN(CC)CCN(Cc1cc2ccc(C)cc2[nH]c1=O)C(=O)Nc1ccc(Cl)cc1	-5	·	100	i	0.84	-87	93
O=C1CCCC(=O)C1=C1SCCCS1	1	0.3	104	i	0.94	15	166
C/C(=N/OC(=O)c1c(-c2ccccc2Cl)noc1C)c1cnccn1	-1	·	104	i	0.97	·	·
